KCNQ2 inh: KCNQ2 channel blockers in CHO-K1 cells – cell-based, FluxOR thallium flux, B-score, primary screen (AID 2156); O88943; 20 min; stronger effect = lower value; only compounds with negative scores are shown here; some inactives read as strong as hits; B-score at 10 µM; 1.1% of 310,000 active;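 active means fluorescence ratio B-score at most minus 3 library SDs, with starting brightness B-score within 2 library SDs, cut at about -5.5 in these data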
Target sequence (O88943 whole entry, looked up): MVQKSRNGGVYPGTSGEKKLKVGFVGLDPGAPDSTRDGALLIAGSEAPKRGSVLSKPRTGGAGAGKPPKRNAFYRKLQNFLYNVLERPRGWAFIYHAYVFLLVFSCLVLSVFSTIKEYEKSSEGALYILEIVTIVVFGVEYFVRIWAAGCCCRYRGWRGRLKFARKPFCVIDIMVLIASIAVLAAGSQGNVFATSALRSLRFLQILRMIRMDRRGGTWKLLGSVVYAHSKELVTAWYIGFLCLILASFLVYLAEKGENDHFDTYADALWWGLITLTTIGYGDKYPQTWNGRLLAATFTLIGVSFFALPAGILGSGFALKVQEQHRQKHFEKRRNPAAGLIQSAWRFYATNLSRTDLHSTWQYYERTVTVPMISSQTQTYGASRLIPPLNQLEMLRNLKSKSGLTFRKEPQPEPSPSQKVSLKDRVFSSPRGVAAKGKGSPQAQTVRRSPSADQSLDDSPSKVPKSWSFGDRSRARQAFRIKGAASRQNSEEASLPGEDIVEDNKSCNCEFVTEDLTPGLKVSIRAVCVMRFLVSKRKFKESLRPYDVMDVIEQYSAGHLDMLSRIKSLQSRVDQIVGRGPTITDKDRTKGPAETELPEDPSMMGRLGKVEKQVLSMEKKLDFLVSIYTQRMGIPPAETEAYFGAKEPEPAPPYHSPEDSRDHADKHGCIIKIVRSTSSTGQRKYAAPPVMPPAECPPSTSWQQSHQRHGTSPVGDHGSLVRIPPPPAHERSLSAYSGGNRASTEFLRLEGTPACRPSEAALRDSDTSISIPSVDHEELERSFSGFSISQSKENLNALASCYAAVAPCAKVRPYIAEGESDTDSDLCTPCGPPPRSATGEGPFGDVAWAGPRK
KCNQ2 inh baseline: second read-out of KCNQ2 inh, no call of its own (marks repeat the call); B-score; measured here: initial fluorescence intensity artifact check;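 brightness before thallium and not channel activity; 0 = typical well and far values either way flag optical interference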
Active calls of the source: *; i = inactive. Only part of the results is shown; the hit share may differ from the screen's.

KCNQ2 inh,KCNQ2 inh baseline,mol
i,0.57,Cc1ccc2nc(-c3ccncc3)cc(C(=O)NCc3ccccc3F)c2c1
i,-0.16,COc1nnc(-c2ccc(C)c(S(=O)(=O)NC(C)C)c2)c2ccccc12
i,-0.25,Clc1cccc(Cl)c1CSc1nnc([C@@H]2CCCN2)o1
i,-0.36,CC(=O)c1ccc2c(c1)c1ccccc1n2CC(C)C
i,-1.5,Fc1ccc(CNn2cnnc2SCc2ccc(F)cc2)cc1
i,0.5,CCOc1ccc(Nc2cc(C)nc(-n3nc(C)cc3C)n2)cc1
i,2.2,O=C(NC1=NCCS1)C1CC(=O)N(c2ccc(F)cc2)C1 (stereo not drawn)
i,-1.7,CCNC(=O)C1CCCN1C(=O)C(CCCN=C(N)N)NC(=O)C(CC(C)C)NC(=O)C(Cc1cn(Cc2ccccc2)cn1)NC(=O)C(Cc1ccc(O)cc1)NC(=O)C(CO)NC(=O)C(Cc1c[nH]c2ccccc12)NC(=O)C(Cc1cnc[nH]1)NC(=O)C1CCC(=O)N1 (stereo not drawn)

The results go on.
KCNQ2 inh,KCNQ2 inh baseline,mol
i,0.02,O=C(NCc1ccc2c(c1)OCO2)c1ccc(COc2cccc(Cl)c2)o1
i,-1.1,O=C(c1ccc2nc3ccc(Cl)cc3c(=O)n2c1)N1CCOCC1
i,-0.43,COc1ccc(NC(=O)c2cc3c([nH]c4ccccc43)c(C)n2)cc1
i,-1.5,O=C(c1ccsc1)N1CCCC(N2CCN(c3cccc(C(F)(F)F)c3)CC2)C1 (stereo not drawn)
i,1.6,CC(=O)c1sc(NC(=O)CS(=O)(=O)c2ccccc2)nc1-c1ccccc1
i,-0.6,COc1cccc(OCc2ccc(C(=O)NCC3CCCO3)cc2)c1 (stereo not drawn)
i,-0.01,CSCCC(NS(=O)(=O)c1cccc(C(F)(F)F)c1)C(=O)N(C)CCOc1ccc(Cl)cc1 (stereo not drawn)
i,-0.31,COc1ccc(C2=NN(C(=O)CSc3nc4ccccc4s3)C(c3ccc(OC)cc3)C2)cc1 (stereo not drawn)

Continued:
KCNQ2 inh,KCNQ2 inh baseline,mol
i,0.73,Cc1cc(C)c(N)c(C(=O)O)c1
i,0.27,CCN(Cc1ccccc1)C(=O)CCc1nc(CN2CCN(C(=O)c3ccc([N+](=O)[O-])cc3)CC2)no1
i,0.27,Cc1cc(C)c(C#N)c(SCC(=O)OC2CCCCC2)n1
i,-1.1,CCO[C@H]1OC(C(=O)N2CCN(Cc3ccccc3)CC2)=C[C@@H](c2coc3ccccc3c2=O)[C@@H]1CCCO
i,0.34,CCOC(=O)/C(C(C)=O)=C1/OC(=O)c2ccccc21
i,1.7,CCOc1ccccc1NC(=O)CCN1CCN(S(=O)(=O)c2ccc(Br)cc2)CC1
i,-0.68,COc1ccc(CC(=O)NCC2(c3ccc(OC)c(OC)c3)CCCC2)cc1
i,-0.71,Cc1ccc(C)c(-c2nnc(NC(=O)C3=COCCO3)o2)c1

(more compounds)
KCNQ2 inh,KCNQ2 inh baseline,mol
i,0.92,COc1ccccc1NS(=O)(=O)c1cc(C)ccc1C
i,0.16,CCC(=O)N1CCCc2cc(S(=O)(=O)N3CCN(c4ccccc4F)CC3)ccc21
i,-1.2,CC(C)CC(NC(=O)C1CCC(C)CC1)C(=O)N1CCN(c2ccccn2)CC1 (stereo not drawn)
i,-2.9,CCOC(=O)C/C(=N\Nc1ncnc2ccccc12)c1ccccc1
i,-0.94,Cc1ccc(S(=O)(=O)N(C)CC(=O)OCC(=O)NC(=O)Nc2ccc3c(c2)OCCO3)cc1
i,1.9,CCOc1ccc(NC(=O)CCC(=O)NNS(=O)(=O)c2ccccc2[N+](=O)[O-])cc1
i,0.97,O=C(Nc1ccc([N+](=O)[O-])cc1)Nn1cnnc1
i,-0.02,COc1ccc(OC)c(NC(=O)c2sc3nc(C)cc(C)c3c2N)c1

Next section:
KCNQ2 inh,KCNQ2 inh baseline,mol
i,0.01,O=C(c1cc(-c2ccc(Cl)cc2)on1)N1CCCC1
i,0.03,NNC(=O)c1cnn(-c2ccccc2)c1C(F)(F)F
i,2.6,COc1ccc(S(=O)(=O)N2CCC(C(=O)Oc3ccc(C)cc3)CC2)cc1OC
i,1.5,CC(=O)Nc1cccc2c1C(=O)N(c1cccc(C)c1)C2=O
i,-0.6,S=c1[nH]nc(COc2ccccc2)n1/N=C/c1ccc(Br)cc1
i,0.55,COc1cccc(CNS(=O)(=O)c2cc3c4c(c2)CCN4C(=O)CC3)c1
i,-0.03,CC1CCCC(C)N1C(=O)CNCc1ccc2c(c1)OCO2 (stereo not drawn)
i,-2.7,CCC(C(=O)NCc1ccco1)N(C(=O)CNS(=O)(=O)c1ccccc1)c1ccccc1C (stereo not drawn)

(next part)
KCNQ2 inh,KCNQ2 inh baseline,mol
i,-0.01,CCCn1c(=O)c(C(=O)NCCCc2ccccc2)c(O)c2ccccc21
i,0.14,N/C(Cn1cncn1)=N\NC(=O)c1ccc(Cl)cc1Cl
i,0.48,C=CCc1cccc2cc(C(=O)Nc3ccc(S(=O)(=O)Nc4nnc(CC)s4)cc3)c(=O)oc12
i,2.3,Cn1c(=O)[nH]c(=O)c2c1nc(NCCCn1ccnc1)n2Cc1ccc(F)cc1
i,0.67,Cc1ncsc1CCC(=O)N1CCCC(C(=O)c2ccc3c(c2)OCO3)C1 (stereo not drawn)
i,0.03,CC(NC(=O)CNC(=O)C1O[C@@H]2OC(C)(C)O[C@@H]2[C@H]2OC(C)(C)O[C@@H]12)C(=O)O (stereo partly drawn)
i,1.2,O=C(Nc1ccc(S(=O)(=O)Nc2nccs2)cc1)/C(=C/c1ccccc1Cl)NC(=O)c1ccccc1
i,-0.24,O=C(Cn1nc(-c2ccccc2)ccc1=O)NCc1ccc(F)cc1

(listing goes on)
KCNQ2 inh,KCNQ2 inh baseline,mol
i,0.75,COc1ccc(OC)c(NC(=O)N2CCCc3ccccc32)c1
i,0.36,O=C(/C=C/c1ccc(Br)o1)OCc1nc2ccsc2c(=O)[nH]1
i,0.05,Nc1ccc(S(=O)(=O)Nc2nccc(/C=C/c3ccc(Br)s3)n2)cc1
i,-0.07,Cc1sc2ncnc(SCC(=O)c3ccc4c(c3)OCCO4)c2c1-c1ccccc1
i,2.2,CCOCCCNC(=O)C(=O)NCCCOCC
i,0.43,COc1cc(C(c2c(O)cc(C)[nH]c2=O)c2c(O)cc(C)[nH]c2=O)ccc1O
i,0.06,COC(=O)[C@H](CCSC)NC(=O)NC1CCN(Cc2ccccc2)CC1
i,-0.9,COc1ccc(OC)c(/C=C/C(=O)Nc2ccc3c(c2)CCC3)c1

(list continues)
KCNQ2 inh,KCNQ2 inh baseline,mol
i,-1.8,CSCC[C@H](NC(=O)[C@@H]1CSC2c3ccccc3C(=O)N21)C(=O)N1CCC[C@H]1CO (stereo partly drawn)
i,3,CCC(C)(C)NC(=O)c1cc(S(=O)(=O)N2CCc3ccccc32)cn1C
i,-4.2,CN(Cc1ccccc1)S(=O)(=O)c1ccc2c(c1)OCCO2
i,0.77,CCOC(=O)C1=C(COC(=O)CNC(=O)c2ccccc2F)NC(=O)NC1C (stereo not drawn)
i,-0.01,COc1ccc(-c2cc(CCCC(=O)NCCc3ccc(OC)cc3OC)no2)cc1
i,-0.62,Cc1c(N=N/C(C(=O)Nc2ccccc2)=C(/O)c2ccccc2)c(=O)n(-c2ccccc2)n1C
i,-0.56,Cc1cc(Br)c2nc3c(c(C(=O)O)c2c1)CCCCC3
i,-1.4,CC(C)(C)OC(=O)NCCCC[C@H](NC(=O)c1nc[nH]c1C(=O)NCc1ccccc1)C(=O)OC(C)(C)C

Next structures follow:
KCNQ2 inh,KCNQ2 inh baseline,mol
i,0.08,CNC(=S)NNC(=O)c1cc(C(C)(C)C)nn1Cc1ccc(F)cc1
i,0.2,CC(C)(/C=N/O)/[N+]([O-])=C/C=[N+](\[O-])C(C)(C)/C=N/O
i,-0.91,CCOC(=O)c1[nH]c2c(c1-c1ccccc1)C(=O)CC(c1ccc(Cl)cc1)C2 (stereo not drawn)
i,-0.35,Cc1cc(NN)nc2ccc(Cl)cc12
i,-0.01,COC(=O)CSc1ccccc1C(=O)OC
i,-0.13,Cc1ccsc1/C=C/C1=Cc2c(sc(NC(=O)CSc3n[nH]c(N)n3)c2C#N)C(C)(C)C1
i,-1.3,CN(C(=O)C12CC3CC(CC(C3)C1)C2)C1(C)CCS(=O)(=O)C1 (stereo not drawn)
i,-0.68,O=C(NCC1CCCO1)C1CCCCN1S(=O)(=O)c1ccc(F)cc1 (stereo not drawn)

The list goes on.
KCNQ2 inh,KCNQ2 inh baseline,mol
i,0.94,Cc1nc(N2CCOCC2)c2c(C)c(C(=O)Nc3ccc(F)cc3Cl)sc2n1
i,0.01,Cc1ccc(F)cc1CNC(=O)C1CCC(=O)N(CCc2ccccc2)C1 (stereo not drawn)
i,0.27,Cc1ccc(-c2noc(C3CCCN(C(=O)c4ccccc4)C3)n2)o1 (stereo not drawn)
i,2.5,CCC1=NC(c2ccccc2)N(O)C1(C)C (stereo not drawn)
i,0.55,CC(C)CC(=O)N1CCN(Cc2ccccc2[N+](=O)[O-])CC1
i,0.26,COc1ccc(Cl)cc1NC(=O)c1c(-c2ccccc2)noc1C
i,-1.1,CCOC(=O)C1(CCc2ccccc2)CCN(C2Cc3ccccc3C2)CC1
i,-0.04,CC12CC3CC(C)(C1)CC(NCc1ccncc1)(C3)C2

Continued.
KCNQ2 inh,KCNQ2 inh baseline,mol
i,0.58,CCOc1ccc(NC(=O)COc2cccc3c2CCN(Cc2cccnc2)C3=O)cc1
i,0.89,COC(=O)c1cc(NC(=O)CN2C(=O)CSC2=O)ccc1Cl
i,1.2,COc1ccccc1N1CCN(C(=O)CSc2ccc3c(C)cc(C)nc3n2)CC1
i,0.22,COc1ccc(C(=O)Nn2c(C)nc3ccccc3c2=O)cc1OC
i,-1.7,CSc1nnc2c(n1)c(C)nn2-c1ccc(C)cc1
i,-1.4,CCOc1nc(N2CCOCC2)nc(C)c1[N+](=O)[O-]
i,1.7,Cc1ccc(NC(=O)CSc2nc3ccccc3c(=O)n2Cc2cccs2)cc1
i,3.7,CCn1c(/C=C/c2c(C)[nH]c3ccccc23)nc2ccccc2c1=O

Continuation.
KCNQ2 inh,KCNQ2 inh baseline,mol
i,-0.02,CCc1ccccc1NC1=NCC(=O)N1C1CCCCC1
i,-1,O=C(COc1ccc(Br)cc1CNCCCN1CCOCC1)Nc1ccccc1
i,0.36,O=c1c2sccc2nc(SCc2ccc([N+](=O)[O-])cc2)n1Cc1ccccn1
i,1,CCC1COC(c2cccn2Cc2ccc(Cl)cc2)=N1 (stereo not drawn)
i,1.8,Cc1nc2cc(NC(=O)CSc3nc4c(C)cccc4cc3C#N)ccc2s1
i,-0.03,CCOC(=O)NC(NC(=S)Nc1ccccc1[N+](=O)[O-])C(Cl)(Cl)Cl (stereo not drawn)
i,-0.85,Cc1ccc(C(=O)N2CCOCC2)c(F)c1F
i,-0.76,O=C(NNC(=O)C12CC3CC(CC(C3)C1)C2)c1ccccc1[N+](=O)[O-]

New compounds follow:
KCNQ2 inh,KCNQ2 inh baseline,mol
i,-0.63,O=C(C[n+]1cccc(CNC(=O)c2ccc(OC(F)F)cc2)c1)Nc1cc(C(F)(F)F)ccc1Cl
i,-0.1,Cc1nc(-c2ccc(F)cc2)c(CC(=O)N(C)CC(=O)Nc2ccccc2Cl)s1
i,-1.1,CCCC(=O)Nc1ccc(S(=O)(=O)N2CCCC2)cc1
i,0.08,Cc1csc(SCC(=O)Nc2cccc(S(=O)(=O)N3CCOCC3)c2)n1
i,0.88,O=S(=O)(c1ccc(F)cc1)n1ccc2cccnc21
i,0.65,CCOC(=O)C(C)n1cnc2c1c(=O)[nH]c(=O)n2C (stereo not drawn)
i,-0.51,CC(C)Oc1cccc(C(=O)C2CCCN(Cc3cccn3-c3ccccn3)C2)c1 (stereo not drawn)
-9.1*,-0.92*,CCOC(=O)c1ccc2c(c1)nc(COc1ccc3ccccc3c1)n2CC

The list goes on, starting with the last 7 of the part before.
KCNQ2 inh,KCNQ2 inh baseline,mol
i,-0.1,Cc1nc(-c2ccc(F)cc2)c(CC(=O)N(C)CC(=O)Nc2ccccc2Cl)s1
i,-1.1,CCCC(=O)Nc1ccc(S(=O)(=O)N2CCCC2)cc1
i,0.08,Cc1csc(SCC(=O)Nc2cccc(S(=O)(=O)N3CCOCC3)c2)n1
i,0.88,O=S(=O)(c1ccc(F)cc1)n1ccc2cccnc21
i,0.65,CCOC(=O)C(C)n1cnc2c1c(=O)[nH]c(=O)n2C (stereo not drawn)
i,-0.51,CC(C)Oc1cccc(C(=O)C2CCCN(Cc3cccn3-c3ccccn3)C2)c1 (stereo not drawn)
-9.1*,-0.92*,CCOC(=O)c1ccc2c(c1)nc(COc1ccc3ccccc3c1)n2CC
i,0.1,CCOP(=O)(OCC)c1nc(-c2cccc3ccccc23)oc1NCc1ccc(OC)cc1
-8.8*,-3.6*,COc1ccc(-c2cc(N)n(S(=O)(=O)c3c(F)c(F)c(F)c(F)c3F)n2)cc1OC
i,0.06,O=C(NNC1CC(=O)N(c2ccc(Br)cc2)C1=O)c1cccnc1 (stereo not drawn)
i,0.09,Cc1ccc(Cl)cc1NC(=O)C(NS(=O)(=O)c1cccs1)c1ccccc1 (stereo not drawn)
i,1.7,Cc1cccc(C(=O)NC(=S)Nc2c(C)n(C)n(-c3ccccc3)c2=O)c1
i,-0.04,CCOC(=O)c1c(C)[nH]c(C)c1S(=O)(=O)NCCN1CCN(c2ccccc2F)CC1
i,-1.9,C=CCOC(=O)c1[nH]c2c(c1C)C(=O)CC(c1ccco1)C2 (stereo not drawn)
i,-1.3,Cc1ccc(NS(=O)(=O)c2ccc(CCC(=O)N3CCCC3)cc2)cc1
i,-1.3,CN(C)c1cc(-c2ccccc2)nc(-c2ccccc2)n1

Full records as entered above.
CCOP(=O)(OCC)c1nc(-c2cccc3ccccc23)oc1NCc1ccc(OC)cc1 as listed: KCNQ2 inh = i; KCNQ2 inh baseline = 0.1
O=C(NNC1CC(=O)N(c2ccc(Br)cc2)C1=O)c1cccnc1 (stereo not drawn) as listed: KCNQ2 inh = i; KCNQ2 inh baseline = 0.06

Source: PubChem BioAssay
